High-throughput results (PubChem)
H5N1 antiviral: MDCK cell protection from H5N1 avian flu; 96,000 compounds, 0.07% hits; AID 740, 2007; cytopathic effect, luminescence, 72 h; stronger effect = higher value; no value below 0 was filed and about half of the inactive calls have no number; reference of the scale not given here; inhibition, % at 50 µM; in the data active = inhibition above about 25%
Active calls of the source: *; i = inactive.

SMILES	H5N1 antiviral
O=C(CN1CCOCC1)OCCCc1ccccc1	i
COC(=O)c1c(NC(=O)CN2CCN(Cc3ccc4c(c3)OCO4)CC2)sc(C)c1C	i
Cc1cc(NC(=O)C(C)C)ncc1NC(=O)Cc1ccccc1	i
CS(=O)(=O)NCc1ccc(C(=O)NCc2ccccc2)cc1	1.3
N#C/C(=N/Nc1ccccc1F)C(=N)N1CCOCC1	0.6
COc1ccccc1CC(=O)N1CCCC1	i
COC(=O)CN1CCN(C(=O)c2ccc(F)cc2)c2ccccc2C1	i
Cn1ccnc1C(O)c1ccco1 (configuration not stated)	0.1
Cc1ccc(N2C(=O)[C@@H]3[C@H](C2=O)C2c4ccccc4C=CN2[C@@H]3C(=O)c2ccco2)cc1 (some centres not stated)	i
O=S(=O)(Nc1ccccc1N1CCOCC1)c1ccc(Cl)s1	i
COc1ccc(N2CCN(C(=O)CCCn3c(=O)[nH]c4cc(Cl)ccc4c3=O)CC2)cc1	i
c1ccc(CSC2=NCCCN2)cc1	i
C/C(O)=C(/N=O)C(=O)Nc1ccccc1	i
CCCOc1ccccc1NC(=O)c1c(-c2ccccc2)noc1C	0.2
Cc1ccccc1-c1cc(C(=O)Nc2sc(C)c(C)c2C(N)=O)c2ccccc2n1	i
OC(COCc1ccc(Cl)cc1)CN1CC=C(c2ccccc2)CC1 (configuration not stated)	i
COc1ccccc1NC(=O)CN1CCN(C2c3ccccc3-c3ccccc32)CC1	0.1
COc1ccc(Cl)cc1NC(=O)Nc1ccc(Br)cn1	0.1
Cc1ccc(C2CN(c3ccccc3)CC2C(=O)c2ccc(F)cc2)cc1 (configuration not stated)	1.4
FC(F)(F)c1cc(-c2ccco2)nc(NCc2ccc(Cl)cc2)n1	0.4
COc1ccc(-c2cc(C(F)F)n3ncc(C(=O)N4CCN(C(=O)c5ccco5)CC4)c3n2)cc1	4.0
Cc1ccc(NCCC(=O)c2cccc([N+](=O)[O-])c2)c(C)c1	i
Nc1c(C(=O)NCc2ccco2)nnn1-c1ccccc1	0.4
CCC(C)Sc1nc2c(c(=O)[nH]c(=O)n2C)n1Cc1ccc(Cl)cc1 (configuration not stated)	0.3
CC(=O)c1ccc(OCCCC(=O)NCC(c2ccco2)N(C)C)cc1 (configuration not stated)	1.1
CCOC(=O)c1c(C=O)c(C)n(Cc2ccccc2)c1C	i
N#C/C(=C/c1ccc(N2CCCC2)c([N+](=O)[O-])c1)c1nc2ccccc2[nH]1	i
COc1ccc(S(=O)(=O)Cc2ccc(C(=O)NCCCN3CCc4ccccc4C3)o2)cc1	1.1
Cc1nnc(NC(=O)C2CCCO2)s1 (configuration not stated)	1.4
COc1ccc(N=CC2=C(O)CCCC2=O)cc1	i
CCOC(=O)c1c(SC)nc(SC)c2c1CCC2	i
COc1ccc(OC)c(C(=O)CSc2nc3c(c(=O)n(C)c(=O)n3C)n2C(C)C)c1	1.7
Cc1nc(N2CCOCC2)c2cc(-c3ccccc3)sc2n1	0.6
C=CCSc1nnc2n(-c3ccccc3OC)c(=O)c3c4c(sc3n12)CCC4	i
COc1ccc(-c2cc(C3CC3)nc3sc(C#N)c(N)c23)cc1	0.9
Cc1ccc(Cn2c(=O)sc3ccccc3c2=O)cc1	i
CC1CCc2nn(CC(=O)N3CCCCCC3)cc2C1 (configuration not stated)	0.0
CCOc1ccc2nc(NC(=O)C(NS(=O)(=O)c3cccc4nsnc34)C(C)C)sc2c1 (configuration not stated)	i
c1ccc(-c2csc3nnc(SCc4ccc5c(c4)OCO5)n23)cc1	2.7
Cc1ccc(Cl)cc1N1CCN(Cc2nnnn2Cc2ccco2)CC1	0.3
CCOc1ccc(Nc2nc(Cc3nnc(SCC(=O)NC4CCCCC4)n3C)cs2)cc1	0.1
Cc1ccc(S(=O)(=O)N(C)CC(=O)N2CCN(C(=O)c3ccco3)CC2)cc1	0.9
CC(C)NC(=O)c1cc(-c2ccco2)nn1-c1ccc(Cl)cc1	i
COCCn1c(=O)[nH]c2cc(C(=O)NCCN3CCN(c4ccccc4)CC3)ccc2c1=O	i
COc1ccc(-c2csc(NC(=O)C3CCCCN3S(=O)(=O)c3ccccc3)n2)cc1 (configuration not stated)	3.5

Filtered by structure, the entries above containing a nitro group on carbon
SMILES	H5N1 antiviral
Cc1ccc(NCCC(=O)c2cccc([N+](=O)[O-])c2)c(C)c1	i
N#C/C(=C/c1ccc(N2CCCC2)c([N+](=O)[O-])c1)c1nc2ccccc2[nH]1	i

Other records follow.
SMILES	H5N1 antiviral
O=C(c1ccc(=O)oc1)N1CCN(c2ccc(F)cc2)CC1	i
CCN(CC)c1ccc(-c2nc3cnccc3n2C)cc1	i
O=C(COc1ccccc1)Nc1cccc(-c2nc3cc4ccccc4cc3[nH]2)c1	i
COCCNc1cc(C)nc2c3c(C)cc(C)nc3nn12	i
Cc1ccc(P(=S)(c2ccc(C)o2)N2CCOCC2)o1	0.4
Cc1cc(C)n(Cc2ccc(C(=O)NCc3ccco3)o2)n1	1.9
Cc1cc(C)n(Cc2ccc(C(=O)O)o2)n1	i
C=CCc1c(C)nc(SC(C)C)[nH]c1=O	0.4
Cc1ccc2c(c1)N(CCC(=O)NCc1ccco1)C(=O)CO2	7.0
O=C(CCc1nc(-c2ccccc2F)no1)NCCN1CCOCC1	i
Oc1ccc(Nc2nc3ccccc3nc2Nc2ccc(O)cc2)cc1	i
CC(=O)c1c(C)cc(C)c(CSc2nnc(-c3ccco3)o2)c1C	i
O=C(CN1CCN(Cc2ccccc2)CC1)NC(=O)NCc1ccco1	i
FC(F)(F)c1ccc(CSc2nccn2-c2ccccc2)cc1	0.3
COC(=O)c1ccccc1NC(=O)CSc1nnc(C(CO)NC(=O)c2ccccc2Cl)n1C (configuration not stated)	i
CCc1cc(=O)oc2cc3oc(C)c(C)c3cc12	0.2
Clc1ccc(CON/C=N/c2ncnc3sccc23)c(Cl)c1	i
CCC(=O)Nc1cccc(-n2nnnc2SCC(=O)NCc2ccco2)c1	0.1
Cc1cc(C(=O)NC2=NCCS2)cs1	i
COc1ccc(CN2CCn3ncc(C(=O)Nc4ccc(Cl)cc4Cl)c3C2=O)cc1	i
CCCCn1c(O)c(C(CC)=Nc2ccc3c(c2)CCC3)c(=O)[nH]c1=O	i
CCOC(=O)c1c(-c2ccc(C)o2)csc1NC(=O)CSc1nncs1	1.6
Cc1c(NC(=O)NC(C)N2C(=O)C3C4C=CC(C4)C3C2=O)c(=O)n(-c2ccccc2)n1C (configuration not stated)	i
Oc1cccc(/C=N/NP(=S)(c2ccccc2)c2ccccc2)c1	i
O=C(O)C1CCCCC1C(=O)NCCc1ccncc1 (configuration not stated)	0.6
N#C/C(=C\c1cn(CCOc2ccccc2)c2ccccc12)C(=O)NCc1ccco1	1.5
CCc1nnc(NC(=O)c2ccc(-c3ccc(Cl)cc3)o2)s1	0.1
COc1ccc(N=C2SC(CC(=O)Nc3ccccc3)C(=O)N2CC2CCCO2)cc1 (configuration not stated)	i
CCS(=O)(=O)NCc1ccc2c(c1)cc(C)n2C	1.6
CSCCC(NC(=O)c1ccco1)C(=O)O (configuration not stated)	i

Random excerpt: 4 entries already listed.
SMILES	H5N1 antiviral
CCC(=O)Nc1cccc(-n2nnnc2SCC(=O)NCc2ccco2)c1	0.1
CCc1nnc(NC(=O)c2ccc(-c3ccc(Cl)cc3)o2)s1	0.1
COc1ccc(N=C2SC(CC(=O)Nc3ccccc3)C(=O)N2CC2CCCO2)cc1 (configuration not stated)	i
Cc1c(NC(=O)NC(C)N2C(=O)C3C4C=CC(C4)C3C2=O)c(=O)n(-c2ccccc2)n1C (configuration not stated)	i

Next part:
SMILES	H5N1 antiviral
Cn1c(C(=O)Nc2ccc3c(c2)OCCO3)cc2c(=O)n(C)c3ccccc3c21	i
Cc1ccc(NC(=O)CN2CCCCCC2)c(Br)c1	i
CCOC(=O)c1c(NC(=O)Cn2nnc(-c3ccc(Cl)cc3)n2)sc(C)c1C	1.6
COc1ccc(CC(=O)Nc2nc(C)cs2)cc1OC	i
Cc1nc(SC2CC(=O)N(c3cc(Cl)cc(Cl)c3)C2=O)nc2c1CCCC2 (configuration not stated)	0.7
CCCCc1nccn1CCn1ccnc1CCCC	0.5
COc1cc(C(=O)Oc2ccccc2/C=N/NC(=O)c2ccc(C)cc2)cc(OC)c1OC	i
N=c1oc2ccccc2cc1-c1nc2ccccc2c(=O)[nH]1	3.7
O=C(CSc1nnc(COc2ccccc2F)n1-c1ccccc1)NCc1ccco1	i
CC1CCN(S(=O)(=O)c2cn(C)c(=O)n(C)c2=O)CC1	0.5
Cn1c(SCC(=O)Nc2ccc3c(c2)OCO3)nnc1-c1cnccn1	i
CC(=O)N1CCN(Cc2nc3cc(NS(C)(=O)=O)ccc3n2C)CC1	i
COc1ccc(C(=O)N2CCc3cc(OC)c(OC)cc3C2c2cccc([N+](=O)[O-])c2)cc1OC (configuration not stated)	0.5
COC(=O)[C@@H](NC(=O)NCc1cccc(OC)c1)C(C)C	0.4
C/C(=C1/C(=O)N(c2ccc([N+](=O)[O-])cc2)N=C1c1ccccc1)N(C)C	i
Cc1ccccc1CS(=O)(=O)c1snnc1C	2.0
CC(=O)Nc1ccc(S(=O)(=O)n2nc(-c3ccc(C)cc3)nc2N)cc1	0.9
CCOC(=O)N1CCN(C(=O)C2CCCN(S(=O)(=O)c3ccccc3)C2)CC1 (configuration not stated)	0.9
O=c1c2c3c(sc2nc2n1CCC2)CCC3	0.2
CCOC(=O)C1CCN(c2c(NCCN3CCCCC3C)c(=O)c2=O)CC1 (configuration not stated)	i
COc1ccc(CNc2ccc(S(N)(=O)=O)cc2)c(OC)c1OC	1.3
CC(C)NS(=O)(=O)c1ccc(CCC(=O)O)cc1	1.7
CN1CCN(C(=O)c2ccc(N(Cc3ccc(Cl)cc3)S(C)(=O)=O)cc2)CC1	0.6
CCCn1c(N)c(C(=O)CSc2nc3ccccc3n2CCC#N)c(=O)n(C)c1=O	i
COc1ccc(N(CC(=O)NN=C2CCCC2)S(=O)(=O)c2ccccc2)cc1	1.0
O=C(c1ccccc1F)N1CCN(S(=O)(=O)c2ccc3c(c2)OCCO3)CC1	0.9
O=C1CSC(c2ccccc2)N1c1nnc(C23CC4CC(CC(C4)C2)C3)s1 (configuration not stated)	i
O=S(=O)(NC1CC1)c1ccc(S(=O)(=O)N2CCCC(c3nc(-c4cccnc4)no3)C2)cc1 (configuration not stated)	1.8
CSc1cccc(NC(=O)Nc2ccc(Cl)cc2)c1	0.1
O=C(O)c1cc(Cl)c2ccccc2c1O	i

In the list so far, 5 have a COOH group:
SMILES	H5N1 antiviral
Cc1cc(C)n(Cc2ccc(C(=O)O)o2)n1	i
O=C(O)C1CCCCC1C(=O)NCCc1ccncc1 (configuration not stated)	0.6
CSCCC(NC(=O)c1ccco1)C(=O)O (configuration not stated)	i
CC(C)NS(=O)(=O)c1ccc(CCC(=O)O)cc1	1.7
O=C(O)c1cc(Cl)c2ccccc2c1O	i

Continuation:
SMILES	H5N1 antiviral
O=C(OCc1nc2ccccc2s1)C1CCN(C2=NS(=O)(=O)c3ccccc32)CC1	i
CCCCOc1ccc(NC(=O)Cn2c(=O)ccc3c(C)cc(C)nc32)cc1	0.4
CN(C)C/C(Cl)=C(\Cl)c1ccccc1	0.4
FC(F)(F)c1nc(Oc2ccccc2)c2ccccc2n1	i
O=c1c2ccccc2nc(-c2ccco2)n1-c1ccc(Br)cn1	i
CC12CNCC(C)(CNC1)C2O (configuration not stated)	0.4
O=C(Nc1nnc(COc2ccc(Cl)cc2)s1)c1cccs1	i
O=C(CSc1nnc(-c2ccc(Cl)cc2)n1Cc1ccco1)c1cccs1	i
COc1ccccc1CNC(=O)C(CCSC)NC(=O)C1CCC(C)CC1 (configuration not stated)	i
O=C(Nc1ccc(O)cc1)C1CCCO1 (configuration not stated)	i
CCOc1cc(/C=N/NC(=O)Cn2nc([N+](=O)[O-])cc2C)cc(Br)c1OCc1ccccc1F	i
O=C(COc1ccc(Cl)cc1)N(Cc1ccccc1)c1nc(-c2ccccc2)cs1	i
O=C(Cc1ccccc1)N/N=C/c1cccs1	2.2
CCCCN(C)c1nc(-c2ccco2)c2c(c1C#N)CC(C)(C)OC2	i
CC(=O)c1ccc(N2CCN(C(=O)COc3ccc(F)cc3)CC2)c(F)c1	2.4
CCOc1cc(/C=C2/C(=O)N(c3ccccc3)N=C2C)ccc1OC(=O)c1ccco1	0.3
CC1CCCN(Cc2nc3c(c(=O)n(C)c(=O)n3C)n2CC(N)=O)C1 (configuration not stated)	i
c1ccc(CN2CCN(c3nc(-c4ccccn4)nc4ccccc34)CC2)cc1	9.5
Cc1cccc2cc(CN(Cc3ccco3)C(c3nnnn3CCc3ccccc3)C(C)C)c(=O)[nH]c12 (configuration not stated)	1.7
Cc1ccc(C)c(NC(=O)CSc2ncnc3nc[nH]c23)c1	0.5
Cc1cc(C)n(-c2nc3nonc3nc2Nc2cccc(C)c2C)n1	0.3
O=C(Cn1ncn2c(cc3ccccc32)c1=O)NCc1ccco1	1.1
c1coc(-c2nnc(NC3=NCCC3)o2)c1	i
O=C(CN1CCCN(S(=O)(=O)c2ccc(Br)s2)CC1)Nc1ccc(Cl)cc1	0.5
CN=C(Nc1cc(C)nn1CCC#N)c1ccccc1F	i
Cc1nc2scc(-c3cccs3)c2c(=O)n1-n1cccc1	4.2
COc1cc(OC)c2c(c1)C(=O)c1cc(OC)cc(OC)c1C2=O	i
Oc1c(/C=N/c2ncn[nH]2)ccc2ccccc12	i
O=C1CCCN1c1ccc(Br)cc1	0.3
Cc1cc2c(cc(C(=O)N3CCC(C(=O)N4CCCC4)CC3)n2Cc2c(F)cccc2Cl)o1	i

Reprinted from the part before: four entries, then new ones.
SMILES	H5N1 antiviral
COc1cc(OC)c2c(c1)C(=O)c1cc(OC)cc(OC)c1C2=O	i
Oc1c(/C=N/c2ncn[nH]2)ccc2ccccc12	i
O=C1CCCN1c1ccc(Br)cc1	0.3
Cc1cc2c(cc(C(=O)N3CCC(C(=O)N4CCCC4)CC3)n2Cc2c(F)cccc2Cl)o1	i
CNC(=O)CSc1nnc(-c2ccncc2)n1Cc1ccccc1	0.1
Cc1ccc(S(=O)(=O)NCC(=O)N(CC(=O)NC2CCCCC2)CC2CCCO2)cc1 (configuration not stated)	1.4
CCOC(=O)CN1CCc2c(C)nc3c(-c4ccc(OC)c(OC)c4)cnn3c21	i
O=C(CCN1C(=O)C2C3C=CC(C3)C2C1=O)N1CC(=O)N(CCc2ccccc2)C(=O)C1 (configuration not stated)	i
COc1ccccc1NC(=O)CN1CCN(c2ccccc2F)CC1	0.7

This is a subset. The share of hits here may be higher or lower than overall.
